Screening results (PubChem BioAssay)
KCNQ2 inh – KCNQ2 potassium channel inhibitors, primary screen, cell-based, CHO-K1, FluxOR thallium flux, B-score (AID 2156). O88943. 20 min; active compounds read low; only compounds with negative scores are shown here; some inactives read as strong as hits. B-score at 10 µM. actives 1.1% (n = 310,000);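 active = fluorescence ratio B-score at most minus 3 library SDs, with starting brightness B-score within 2 library SDs, cut at about -5.5 in these data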
Target sequence (O88943 whole entry, looked up): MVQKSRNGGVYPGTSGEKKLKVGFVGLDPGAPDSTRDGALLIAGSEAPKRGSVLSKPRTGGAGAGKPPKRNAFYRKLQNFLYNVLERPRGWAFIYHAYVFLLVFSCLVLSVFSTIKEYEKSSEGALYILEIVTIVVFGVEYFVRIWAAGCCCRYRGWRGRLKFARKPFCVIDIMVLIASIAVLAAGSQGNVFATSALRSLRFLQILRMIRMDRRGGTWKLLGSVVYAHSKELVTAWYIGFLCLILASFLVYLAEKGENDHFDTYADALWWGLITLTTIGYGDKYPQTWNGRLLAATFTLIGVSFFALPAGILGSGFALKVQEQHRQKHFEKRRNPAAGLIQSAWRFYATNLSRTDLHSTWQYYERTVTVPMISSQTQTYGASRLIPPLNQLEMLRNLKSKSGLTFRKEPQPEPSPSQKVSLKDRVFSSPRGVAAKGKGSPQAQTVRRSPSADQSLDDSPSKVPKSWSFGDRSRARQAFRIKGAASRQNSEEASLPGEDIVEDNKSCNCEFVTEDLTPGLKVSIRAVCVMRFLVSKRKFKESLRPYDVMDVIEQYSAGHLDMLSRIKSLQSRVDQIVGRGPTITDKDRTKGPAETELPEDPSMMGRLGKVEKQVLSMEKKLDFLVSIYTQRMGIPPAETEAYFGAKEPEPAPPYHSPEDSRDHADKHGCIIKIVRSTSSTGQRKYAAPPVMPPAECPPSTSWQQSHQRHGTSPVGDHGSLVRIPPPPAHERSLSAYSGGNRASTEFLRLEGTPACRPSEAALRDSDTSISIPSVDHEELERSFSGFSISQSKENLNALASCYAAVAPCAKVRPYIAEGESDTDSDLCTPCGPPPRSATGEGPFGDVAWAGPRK
KCNQ2 inh baseline – recorded beside KCNQ2 inh, whose call it bears; B-score; measured here: initial fluorescence intensity artifact check;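 brightness before thallium and not channel activity; 0 = typical well and far values either way flag optical interference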
* = called active by the depositor; i = inactive.

Second line of a record: KCNQ2 inh | KCNQ2 inh baseline
> Cc1cccc(OCC(=O)OCC(=O)N(CC(C)C)c2c(N)n(Cc3ccccc3)c(=O)[nH]c2=O)c1C
  i | 2.58
> Cc1cc(C(=O)Nn2c(-c3ccncc3)nc3ccccc3c2=O)ccc1[N+](=O)[O-]
  i | 0.85
> CCS(=O)(=O)N1N=C(c2cccc(NS(C)(=O)=O)c2)CC1c1ccccc1 (configuration not stated)
  i | 3.03
> Cn1c[n+](C)cc1/C=N/O
  i | -0.58
> CCOC(=O)N1CCN(c2cc(=O)n(C)c(=O)n2C)CC1
  i | 1.12
> O=C(N/N=C/c1ccco1)C(O)C(O)C(=O)N/N=C/c1ccco1 (configuration not stated)
  i | -0.25
> O=C1c2cccc3cccc(c23)N1Cc1ccc(F)cc1
  i | -0.13
> Cc1ccc(NC(=O)CSc2nc3ccccc3c3nc(CCc4c(C)n[nH]c4C)nn23)cc1F
  i | 0.85
> COC(=O)c1ccc(C(=O)OC)c(NC(=O)CN2CCN(c3ccc(OC)cc3)CC2)c1
  i | 0.93
> Cc1ccc(-n2c(SCc3nc4ccccc4c(=O)[nH]3)nnc2-c2ccccc2O)cc1
  i | -2.01
> N#Cc1ccc(OS(=O)(=O)c2ccc(-c3ccon3)s2)cc1
  i | -0.94
> CCOC(=O)c1ccc(-n2c(CN3CCC(C(N)=O)CC3)nc3ccc([N+](=O)[O-])cc3c2=O)cc1
  i | 1.53
> CCn1c(COc2ccc(Cl)cc2)nnc1SCc1ccc(C#N)cc1
  i | 0.6
> CCOC(=O)C1=NN(c2ccccc2C)C2=NC(C)=C(C(=O)OC)C(c3cccs3)N12 (configuration not stated)
  i | 1.57
> CCn1c(=O)cc(NC2=NCC(C)CN2c2cccc(Cl)c2)n(C)c1=O (configuration not stated)
  i | 1.58
> OC(COC(c1ccc(Cl)cc1)c1ccc(Cl)cc1)CN1CCN(c2ccccn2)CC1 (configuration not stated)
  i | 0.52
> Cc1ccccc1C(=O)NCCc1nnc(SCC(=O)Nc2nc(-c3ccccc3)cs2)n1C
  i | 2.11
> COc1ccc(C(C(=O)NCC2CCCO2)N(C(=O)Cn2nnc3ccccc32)c2ccccc2C(C)=O)cc1OC (configuration not stated)
  i | 0.82
> Cc1cccc(C)c1N1C(=O)c2cccc([N+](=O)[O-])c2C1=O
  i | 2.24
> CCC(C)(C)NC(=O)C(c1ccc(F)cc1)N(Cc1ccco1)C(=O)CCC(=O)Nc1ccccn1 (configuration not stated)
  i | -0.05

Shown with values ahead of the structure: entries from further up
KCNQ2 inh	KCNQ2 inh baseline	SMILES
i	3.03	CCS(=O)(=O)N1N=C(c2cccc(NS(C)(=O)=O)c2)CC1c1ccccc1 (configuration not stated)
i	-0.58	Cn1c[n+](C)cc1/C=N/O

Following part:
Second line of a record: KCNQ2 inh | KCNQ2 inh baseline
> CC(C)OCCCNc1ncc2c(n1)CC(c1cccs1)CC2=O (configuration not stated)
  i | 0.35
> O=C(/C=C/c1ccccc1)NNC1=NS(=O)(=O)c2ccccc21
  i | 1.32
> CN(C)S(=O)(=O)c1cccc(NC(=O)COC(=O)/C=C/c2ccc3c(c2)OCO3)c1
  i | 0.48
> CN=C1SC(CC(=O)Nc2ccc(F)cc2F)C(=O)N1/N=C(\C)c1cccc(OCC(=O)O)c1 (configuration not stated)
  i | -0.5
> COC(=O)c1sccc1S(=O)(=O)NCc1ccc(S(N)(=O)=O)cc1
  i | 0.45
> O=C(CSc1nc2ccccc2o1)NCCOc1ccccc1
  i | -1.57
> O=C(c1ccco1)N(Cc1ccc(Cl)cc1)Cc1ccco1
  i | -0.23
> CCOc1ccccc1Nc1nc(-c2sc(NC(=O)c3cccc(Cl)c3)nc2C)cs1
  i | 2.39
> O=C(O)c1ccc(S(=O)(=O)N2CCCc3ccccc32)cc1
  i | -1.5
> O=C(CN1CCCC1)Nc1cc(F)ccc1F
  i | 1.14
> Cc1ccc(S(=O)(=O)CCc2nnc(N)s2)cc1
  i | 0.47
> Cc1ccc(N=C2NC(=O)/C(=C/C=C/c3ccco3)S2)cc1C
  i | -0.75
> Cc1nc(Nc2nc3ccccc3o2)nc(C)c1C
  i | -1.45
> N#Cc1ccc(S(=O)(=O)N2CCCN(c3ccc(C(F)(F)F)cn3)CC2)cc1
  i | 1.84
> COc1ccc(C(=O)O/N=C(\N)c2cccc(C)c2)cc1OC
  i | -1.16
> CC1CC(C)CN(S(=O)(=O)c2ccc(C(=O)N(c3ccccn3)C3CCCCC3)cc2)C1 (configuration not stated)
  i | -2.49
> CCC(C)NS(=O)(=O)c1ccc(OCC(=O)Nc2ccc3c(c2)OCO3)cc1 (configuration not stated)
  i | 1.7
> COc1ccc(N2CCN(C(=O)c3cc4ccccc4o3)CC2)cc1
  i | -0.82
> COc1cc(OC)cc(C(=O)NC2CCN(CC(=O)Nc3cccc4ccccc34)CC2)c1
  i | -0.35
> O=C(NCc1ccccc1Cl)c1ccc2ccccc2n1
  i | -1.25
> c1ccc(-c2ncc(-c3ccn[nH]3)s2)cc1
  i | -0.64
> CC1C=CCC2C(=O)N(c3cccc(C(=O)Nc4ccc(F)cc4)c3)C(=O)C12 (configuration not stated)
  i | -0.07
> Cc1ccc(NC(=O)CCNS(=O)(=O)c2ccc3c(c2)CCC(=O)N3)cc1C
  i | -0.71
> O=C(CSc1n[nH]c(-c2ccncc2)n1)Nc1ccc(Cl)cc1
  i | 0.83
> COc1ccc(C(=O)CSc2nnc(CCc3ccccc3)n2-c2ccccc2)cc1
  i | 0.16
> Cn1nc(-c2ccccc2)c(CSc2ccccc2)c1Cl
  i | -0.68
> COc1ccc2nc(/C(C#N)=C\c3ccc(Oc4ccc([N+](=O)[O-])cn4)cc3)[nH]c2c1
  i | -0.05
> Cc1cccc(N/C=C(\[N+](=O)[O-])S(=O)(=O)c2ccccc2)c1C
  i | 0.8
> Cc1ccc2cc(C#N)c(NCCNC(=S)NCCCN(C)C)nc2c1C
  i | -0.42
> Cc1ccc(SCC(=O)NC2CC2)cc1
  i | -1.1
> CCC(=O)Nc1ccc(Br)c(Cl)c1
  i | -0.48
> CCCCN(CC)C(=O)Cc1cn(C)c2ccccc12
  i | -0.07
> O=C(CCn1c(=S)oc2ccccc21)N1CCN(c2ccc(F)cc2)CC1
  i | -0.41
> CCOC(=O)CSc1ccc2nnc(-c3ccccc3)n2n1
  i | -2.38
> N#C/C(=C\c1cccc(NC(=O)c2ccccc2Cl)c1)C(=O)NCCc1ccccc1
  i | -0.71
> CCN(CC)S(=O)(=O)c1ccc(OCC(=O)NC(=O)c2ccccc2OC)c([N+](=O)[O-])c1
  i | 1.79
> COc1cccc(CN2CCNC(=O)C2CC(=O)NCCOc2cccnc2)c1 (configuration not stated)
  i | -0.34
> COc1cc(/C=C(\NC(=O)c2ccccc2)C(=O)NCCO)c([N+](=O)[O-])cc1OC
  i | 1
> CCOC(=O)C(NC(=O)c1ccc(F)cc1)(Nc1nnc(C)s1)C(F)(F)F (configuration not stated)
  i | 2.14
> COc1cccc(C(=O)Nc2cccc(C(=O)NCC(C)C)c2)c1
  -6.69* | -0.6*
> CC(=O)Nc1ccccc1C(=O)C(=O)Nc1cccc(Br)c1
  i | -2.51
> CC(C)c1nc2sc(C(=O)O)c(N)c2c2c1CCCC2
  i | -0.56
> O=C(OCC1COc2ccccc2O1)c1ccccc1F (configuration not stated)
  i | -1.14
> Cc1ccccc1OCCNC(=O)c1ccccc1Sc1ccccc1C#N
  i | 0.47
> O=C(NC1CCCCC1)C(c1ccccc1)N(Cc1ccco1)C(=O)c1csnn1 (configuration not stated)
  i | 1.79
> Cc1ccccc1S(=O)(=O)NC1OC(=O)C(Oc2ccccc2)=C1Br (configuration not stated)
  i | 1.83
> O=C1NC(=Nc2ccccc2Cl)S/C1=C\c1ccc(C(=O)O)cc1
  i | 1.14
> COC(=O)c1ccc(NC(=O)CCn2c(=O)oc3ccccc32)cc1
  i | -1.68
> CCn1c(SCC(=O)Nc2ccc(C)cc2)nnc1-c1ccc(O)cc1
  i | 0.81
> O=C(NNC(=O)c1ccccc1[N+](=O)[O-])Nc1ccccc1C(F)(F)F
  i | 2.12
> O=C(c1ccoc1)N1CCCC(N2CCN(c3cccc(Cl)c3)CC2)C1 (configuration not stated)
  i | 0.08
> Cc1cccc(C)c1NC(=O)c1cc(S(=O)(=O)N2CCOCC2)ccc1F
  i | -0.05
> CCCCNc1nc2sc3c(c2c(=O)n1-c1cccc(Cl)c1)CCN(C)C3
  i | 0.18
> Cc1c(C#N)c2ncnc(-c3ccccc3)c2n1-c1ccccc1
  i | 0.01
> COc1cc(OC)cc(C(=O)NCCSc2c[nH]c3ccccc23)c1
  i | -1.29
> Oc1ccc(-c2onc3ccc(Cl)cc23)cc1
  i | 0.87
> Cc1ccc(Cn2nnc3c(=O)n(CC(=O)N4CCN(c5ccccc5)CC4)cnc32)cc1
  i | 0.27
> CSCC[C@H](NC(=O)[C@@H]1Cc2ccccc2CN1)C(=O)Nc1cccc(C)c1
  i | 0.25
> Cc1cc(C)n(CCCO)c(=O)c1C#N
  i | -0.4
> COc1ccc(O)c(/C=C(\C#N)C(=O)Nc2ccccn2)c1
  i | -0.73

The list goes on; it opens with the seven that closed the last part.
Second line of a record: KCNQ2 inh | KCNQ2 inh baseline
> Cc1c(C#N)c2ncnc(-c3ccccc3)c2n1-c1ccccc1
  i | 0.01
> COc1cc(OC)cc(C(=O)NCCSc2c[nH]c3ccccc23)c1
  i | -1.29
> Oc1ccc(-c2onc3ccc(Cl)cc23)cc1
  i | 0.87
> Cc1ccc(Cn2nnc3c(=O)n(CC(=O)N4CCN(c5ccccc5)CC4)cnc32)cc1
  i | 0.27
> CSCC[C@H](NC(=O)[C@@H]1Cc2ccccc2CN1)C(=O)Nc1cccc(C)c1
  i | 0.25
> Cc1cc(C)n(CCCO)c(=O)c1C#N
  i | -0.4
> COc1ccc(O)c(/C=C(\C#N)C(=O)Nc2ccccn2)c1
  i | -0.73
> COc1cc(C2C(C#N)=C(N)OC3=C2C(=O)CCC3)cc(OC)c1OC(=O)N1CCOCC1 (configuration not stated)
  i | 0.33
> CO/N=C/c1ccc(OC)c(Oc2nc(OC)cc(OC)n2)c1
  i | 0.5
> COC(=O)C1=C(N)Oc2cc(C)n(CCCn3ccnc3)c(=O)c2C1c1cccc(Cl)c1 (configuration not stated)
  i | 2.26
> COc1ccc(N(C)S(=O)(=O)c2cccc(C(=O)NC3CCCCC3C)c2)cc1 (configuration not stated)
  i | 2.37
> CC(C)C(=O)NC(CC(=O)O)c1ccccc1 (configuration not stated)
  i | -0.25
> c1ccc(-c2nnc3sc(-c4cc5ccccc5o4)nn23)cc1
  i | -1.61
> CN1CCN(c2ccc(NC(=O)c3ccccc3)cc2)CC1
  i | 0.94
> COc1ccc(NC(=O)C2CCCN(S(=O)(=O)c3cccc4nonc34)C2)cc1OC (configuration not stated)
  i | 1.91
> O=C(CN(C(=O)CCC(=O)Nc1nccs1)c1ccc(F)cc1)NCc1ccc2c(c1)OCO2
  i | -0.77
> COc1ccccc1-n1c(SCC(=O)Nc2ccc(NC(C)=O)cc2)nc2c([nH]c3ccccc32)c1=O
  i | -0.16
> CC(C)c1nc2cc(C(=O)N(C)Cc3ccc(F)cc3)ccc2o1
  i | 0.4
> COc1cc(N=C(N)N=C(N)N)cc(OC)c1
  i | -0.83
> Cc1cc(C(=O)NC2CCCc3c2cnn3-c2ccc(C)c(C)c2)nc(C)n1 (configuration not stated)
  i | -0.53
> NS(=O)(=O)c1ccc(NC(=O)C(=O)NCCC(=O)O)cc1
  i | -0.05
> Cc1ccc(CSCC(=O)NCc2cccnc2)cc1
  i | 0.29
> NC(=O)CSc1nnc(-c2ccncc2)n1CCc1ccccc1
  i | 1.61
> CCOc1ccc2c(c1)-c1c(ssc1=S)C(C)(C)N2C(=O)CSC1=NCCS1
  i | 0.67
> CC(=O)Nc1ccc(S(=O)(=O)NCCC(=O)N2CCN(C(c3ccccc3)c3ccccc3)CC2)cc1
  i | -1.08
> O=C(/C=C/c1ccc(Cl)cc1)Nc1ccc(S(=O)(=O)Nc2ncccn2)cc1
  i | 0.1
> COC(=O)c1cc(=O)n(-c2ccccc2)c(=Nc2ccccc2)s1
  i | 0.94
> O=S(=O)(Nc1cccc(S(=O)(=O)N2CCOCC2)c1)c1ccc(Cl)s1
  i | 0.09
> CC1C=Cc2ccccc2N1C(=O)c1ccccc1 (configuration not stated)
  i | -1.95
> CC1(C)C(C=C(Cl)Cl)C1C(=O)N(Cc1ccc(Cl)cc1)C1CCS(=O)(=O)C1 (configuration not stated)
  i | 0.47
> O=C(c1cccs1)n1cc(C(=S)N2CCOCC2)c2ccccc21
  i | 0.98
> CC(=O)c1cc2c(cc1NS(=O)(=O)c1ccccc1F)OCO2
  i | 0.42
> C[C@@H]1CN(C(=O)c2nc3ccc(Cl)cn3c2CN[C@H]2CCCCNC2=O)C[C@H](C)O1
  i | -1.11
> O=C(Nc1cccc(S(=O)(=O)N2CCOCC2)c1)c1ccco1
  i | 0.39
> Cc1cccc2c(=O)c(-c3ccc(Cl)cc3)c(NC(=O)c3ccco3)oc12
  i | 0.11
> CC(Cc1ccccc1)C(=O)N(C)Cc1ccccc1 (configuration not stated)
  i | 1.2
> COc1ccccc1CNC(=O)C1(NC(=O)Nc2ccc(C)cc2)CCCCC1
  i | -0.32
> CC(C)c1ccc(NC(=O)CSc2n[nH]c(=O)n2-c2ccc3c(c2)OCCO3)cc1
  i | 1.3
> Nc1nonc1NC(=O)NN=C1CCCCC1
  i | -1.21
> N#Cc1c(NC(=O)COC(=O)c2ccc(F)cc2)sc2c1CCC2
  i | 1.64
> O=C(Nc1ccncc1)OCc1ccccc1
  i | 0.37

Not all compounds are listed, so the mix of outcomes need not match the whole.
